Screening data deposited in PubChem by Southern Research Institute.
total CFTR = total CFTR protein upregulators, primary screen, cell-based, HeLa F508del-CFTR, immunofluorescence, viability (AID 1224863); HeLa F508del-CFTR, immunofluorescence total CFTR, 24 h; by the record results were divided by relative cell number; some inactives read as strong as hits; calls, or highest fold increase where a dose series was run; hit rate 0.1% among 10,000; in the data nearly all actives have a first-pass fold increase above 1.5; a few of its hits are not listed in these tables;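 further: total CFTR protein by anti-CFTR immunofluorescence in fixed cells; first pass at 25 µM or 10 µg/mL by library and series up to twice that; 1 = untreated cells; first-pass hits also needed half or more of the cells alive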
total CFTR fold 25 µM = also measured in total CFTR; calls as there; fold increase; measured here: primary screen single dose 25 uM; library dosed in µM
total CFTR fold 10 ug/mL = further read-out of total CFTR, marked with its call; fold increase; measured here: primary screen 10 ug/mL
total CFTR viability 25 µM = recorded beside total CFTR, whose call it bears; viability, %; measured here: primary viability 25 uM; library dosed in µM;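 0% = killed and 100% = untreated cells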
total CFTR viability 10 ug/mL = further read-out of total CFTR, marked with its call; viability, %; measured here: primary viability 10 ug/mL;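 0% = killed and 100% = untreated cells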
An asterisk follows results filed as active; i = inactive; x = no result given; & = joins results of further samples. An excerpt. The share of hits here may be higher or lower than overall.

Start of the data: the first three entries, to show the layout:
SMILES	total CFTR	total CFTR fold 10 ug/mL	total CFTR viability 10 ug/mL	others
O=C(Nc1nc(CN2CCCCC2)cs1)C12CC3CC(CC(C3)C1)C2	i	1.1	82
O=C(NC1CCS(=O)(=O)C1)C1CCC(C(=O)NC2CCS(=O)(=O)C2)CC1 (centres undefined)	i	0.95	92
CSc1nnc(SCc2csc(-c3ccc(C)o3)n2)s1	i	0.99	98

The whole of this part, from the start:
SMILES	total CFTR	total CFTR fold 10 ug/mL	total CFTR viability 10 ug/mL	others
O=C(Nc1nc(CN2CCCCC2)cs1)C12CC3CC(CC(C3)C1)C2	i	1.1	82
O=C(NC1CCS(=O)(=O)C1)C1CCC(C(=O)NC2CCS(=O)(=O)C2)CC1 (centres undefined)	i	0.95	92
CSc1nnc(SCc2csc(-c3ccc(C)o3)n2)s1	i	0.99	98
CN(C)c1ccc(C(F)(F)F)cc1NS(=O)(=O)c1ccc(C(F)(F)F)cc1	i	0.94	81
CCCn1nnnc1Cn1c(S(C)(=O)=O)nc2ccccc21	i	1	106
O=S(=O)(C1=Cc2ccccc2CC1)N1CCN(S(=O)(=O)N2CCCCCC2)CC1	i	1	101
Cc1cc(NC(=O)C(C)OC(=O)c2cc(C)n(CC(F)(F)F)c2C)no1 (centres undefined)	i	0.89	93
Cn1cnn(CN2CCCC2c2ccccc2)c1=S (centres undefined)	i	1.1	103
COc1cc([C@@H]2c3cc4c(cc3[C@H](O)[C@H]3COC(=O)[C@H]23)OCO4)cc(OC)c1OC	i	x	x	total CFTR fold 25 µM=0.78;total CFTR viability 25 µM=73
CC1(C)O[C@@H]2CC3C4C[C@H](F)C5=CC(=O)CC[C@]5(C)C4[C@@H](O)C[C@]3(C)[C@]2(C(=O)CO)O1 (some centres undefined)	i	x	x	total CFTR fold 25 µM=1.2;total CFTR viability 25 µM=79
CC1Cc2cc([N+](=O)[O-])ccc2N1Cn1ncn(C)c1=S (centres undefined)	i	0.82	82
S=c1n(CN2CCN(C3CCCC3)CC2)nc(C2CC2)n1-c1ccccc1	i	1.1	101
O=C(NCCC1=CCCCC1)C1(c2ccccc2)CCC1	i	0.82	83
COc1ccc2cc(CCC(C)=O)ccc2c1	i	x	x	total CFTR fold 25 µM=1.2&0.99;total CFTR viability 25 µM=99&89
CC1CC(C)(C)N1 (centres undefined)	i	1.1	86
Cc1sc2nc(CN3CCOCC3)nc(NCC3CCCO3)c2c1C (centres undefined)	i	1.1	95
N[C@@H]1CONC1=O	i	x	x	total CFTR fold 25 µM=1.2;total CFTR viability 25 µM=97
CC(C)C(=O)Nc1ccc([N+](=O)[O-])c(C(F)(F)F)c1	i	x	x	total CFTR fold 25 µM=0.81&0.92;total CFTR viability 25 µM=74&84
c1ccc(C2(CNc3nc4ccccc4o3)CC2)cc1	i	0.84	67
CC(C)(C)NC[C@H](O)COc1nsnc1N1CCOCC1	i	x	x	total CFTR fold 25 µM=1;total CFTR viability 25 µM=86
COc1ccc(CNc2ccc(C(F)(F)F)cc2[N+](=O)[O-])cc1	i	0.79	98
Cn1cc(S(=O)(=O)Nc2ccc(F)c(-c3nnc4n3CCCCC4)c2)cn1	i	0.92	97
COc1cc(Br)c(CN2C(=O)C3CC=CCC3C2=O)cc1OC (centres undefined)	i	1	91
CC(C)(C)OC(=O)NCCC(=O)NCCNC(=O)c1ccco1	i	1	98
S=c1n(CN2CCSCC2)nc(CN2CCCCC2)n1-c1ccccc1	i	0.94	89

Next part.
SMILES	total CFTR	total CFTR fold 10 ug/mL	total CFTR viability 10 ug/mL	others
CN(Cc1ccc(N2CCCCC2)cc1)c1ccc2nnnn2n1	i	0.94	90
O=c1c2ccccc2cnn1CN(Cc1ccccc1F)C1CC1	i	1.2	99
Fc1cc(Br)ccc1Oc1ccc2nnc(C(F)(F)F)n2n1	i	0.98	97
O=c1c2ccccc2nc(SCC2CC2(Cl)Cl)n1C1CC1 (centres undefined)	i	1.3	95
NS(=O)(=O)c1cc(C(=O)O)c(NCc2ccco2)cc1Cl	i	x	x	total CFTR fold 25 µM=1&0.99&1;total CFTR viability 25 µM=107&107&91
OC(CCN1CCCCC1)(c1ccccc1)c1ccccc1	i	x	x	total CFTR fold 25 µM=0.98;total CFTR viability 25 µM=81
CNC(=O)NC(=O)CN(C)Cc1ccsc1	i	0.96	101
COc1cc2c(cc1OC)CN(CCN)CC2	i	0.95	83
CC1Cc2cc(S(N)(=O)=O)ccc2N1Cc1ccc(Br)cc1 (centres undefined)	i	1	89
Cc1nn(Cc2cc(Cl)c3c(c2)OCO3)c(C)c1[N+](=O)[O-]	i	0.97	92
O=C1NC(c2ccccc2)(C(F)(F)F)OC2=NCCN12 (centres undefined)	i	1	103
COc1c(C)c2c(c(O)c1C/C=C(\C)CCC(=O)O)C(=O)OC2	i	x	x	total CFTR fold 25 µM=0.94&1&0.91;total CFTR viability 25 µM=74&82&78
Cc1ccsc1CN(C)CN1C(=O)NC2(CCC(C)CC2)C1=O (centres undefined)	i	1.1	102
COc1ccccc1CN(C)c1nc2sccn2c1[N+](=O)[O-]	i	1	82
COc1ccc(OC)c(C2CCCN2CN2C(=O)NC3(CC(C)CC(C)(C)C3)C2=O)c1 (centres undefined)	i	1	111
O=C1NC2(CCCCCC2)C(=O)N1CN1CCCCCCC1	i	0.99	76
CC1CN(CC(=O)Nc2sc3c(c2C#N)CCCC3)CCO1 (centres undefined)	i	1	101
CN1C(=O)OC(C)(C)C1=O	i	x	x	total CFTR fold 25 µM=1.1;total CFTR viability 25 µM=91
COc1cc2ncn(CC(O)COc3ccc(Cl)cc3Cl)c(=O)c2cc1OC (centres undefined)	i	0.9	92
COCc1cc(NS(=O)(=O)c2cc(OC)c(OC)cc2C)cc2c1OCOC2	i	0.86	90
CS(=O)(=O)N1CCN(C(=O)c2ccc(S(=O)(=O)N3CCCCC3)o2)CC1	i	0.89	94
CCNC(=O)CSc1ncnc2sc3c(c12)CCC3	i	1	85
Clc1ccccc1C1=CC(c2cn(-c3ccccc3)nc2-c2ccccc2)n2nnnc2N1 (centres undefined)	i	0.94	116
CN1CCC2(CC1)NC(=O)N(CN(C)Cc1ccc(Cl)s1)C2=O	i	1.1	90
COCCn1c(SC(C)C)nc2sc3c(c2c1=O)CCC3	i	0.9	90

The listing continues.
SMILES	total CFTR	total CFTR fold 10 ug/mL	total CFTR viability 10 ug/mL	others
Cc1cc(-n2c(C)cc(C3Nc4ccccc4C(=O)N3C3CC3)c2C)no1 (centres undefined)	i	0.99	77
CN(C1CCS(=O)(=O)C1)S(=O)(=O)c1cc(Cl)cc(Cl)c1 (centres undefined)	i	1	102
Cc1ccc(C)c(OCCOn2nnc3ccc(S(C)(=O)=O)cc32)c1	i	1.1	82
C[C@]12CCC(=O)C=C1CCC1C2[C@@H](O)C[C@@]2(C)C1CC[C@]2(O)C(=O)COC(=O)CCC(=O)O (some centres undefined)	i	x	x	total CFTR fold 25 µM=1.1;total CFTR viability 25 µM=85
COc1cc2c(cc1OC)CN(Cn1ncn(C(C)C)c1=S)CC2	i	1.1	96
CCC(NC(=O)CCN1C(=O)CCC1=O)C12CC3CC(CC(C3)C1)C2 (centres undefined)	i	0.96	89
CC1CC(C)CN(Cc2nc3ccsc3c(=O)[nH]2)C1 (centres undefined)	i	0.97	96
Cc1cc(-c2cc3cc(Cl)ccc3o2)nc2ccccc12	i	1.1	80
N#CCCC(C#N)CN1CCN(c2ccccn2)CC1 (centres undefined)	i	0.92	100
CCCc1cc(C(=O)NC(C)CC)sc1C (centres undefined)	i	0.89	90
c1ccc(Nc2nc(-c3cccnc3)nc3sc4c(c23)CCCC4)cc1	i	0.95	86
O=C(OCn1nnc2ccccc2c1=O)c1ccccc1OC(F)F	i	0.96	96
O=C1/C(=C/c2cccc(C(F)(F)F)c2)COc2ccccc21	i	0.66	12
COc1ccc(C2=NNC3(C2)NN=C(c2ccccc2N)NC3=O)cc1OC (centres undefined)	i	0.71	72
CC1=NS(=O)(=O)c2cc(Cl)ccc2N1	i	x	x	total CFTR fold 25 µM=0.92&1;total CFTR viability 25 µM=106&94
Cc1nc2ccccc2nc1CSc1nnc(C)n1C	i	1.1	91
COc1ccc(O)c(C(=O)OC(C)C(=O)C23CC4CC(CC(C4)C2)C3)c1 (centres undefined)	i	1.1	78
CC12CCC3C(CCC4CCCCC43C)C1Cc1sc(N)nc12 (centres undefined)	i	0.98	105
CC(c1nc(C(C)(C)C)no1)N1CCN(S(=O)(=O)N2CCCC2)CC1 (centres undefined)	i	1	99
CCN1CC(CN(C)S(=O)(=O)c2ccc(Cl)s2)Oc2ccccc21 (centres undefined)	i	0.87	81
CC1(C)NC(=O)N(CCNC(c2ccccc2)c2ccccc2)C1=O	i	1.1	95
Cc1nc2ccccc2[nH]1	i	1	100
Cc1cc(NC(=O)Cn2c(C)cc(-c3csc(C)n3)c2C)no1	i	1.1	105
O=C1CN(C(=O)Nc2ccc(Br)cc2Br)CCN1	i	0.93	80
O=C1CCCN1CC(NCc1cccc2c1OCO2)c1cccc(C(F)(F)F)c1 (centres undefined)	i	1.2	100

A stretch of the results above:
SMILES	total CFTR	total CFTR fold 10 ug/mL	total CFTR viability 10 ug/mL	others
CCN1CC(CN(C)S(=O)(=O)c2ccc(Cl)s2)Oc2ccccc21 (centres undefined)	i	0.87	81
CC1(C)NC(=O)N(CCNC(c2ccccc2)c2ccccc2)C1=O	i	1.1	95
Cc1nc2ccccc2[nH]1	i	1	100
Cc1cc(NC(=O)Cn2c(C)cc(-c3csc(C)n3)c2C)no1	i	1.1	105
O=C1CN(C(=O)Nc2ccc(Br)cc2Br)CCN1	i	0.93	80
O=C1CCCN1CC(NCc1cccc2c1OCO2)c1cccc(C(F)(F)F)c1 (centres undefined)	i	1.2	100

Among those listed so far, 2 have an NH in an aromatic ring.
SMILES	total CFTR	total CFTR fold 10 ug/mL	total CFTR viability 10 ug/mL	others
CC1CC(C)CN(Cc2nc3ccsc3c(=O)[nH]2)C1 (centres undefined)	i	0.97	96
Cc1nc2ccccc2[nH]1	i	1	100

The results go on:
SMILES	total CFTR	total CFTR fold 10 ug/mL	total CFTR viability 10 ug/mL	others
C=C(Cl)COC(=O)c1nccnc1N	i	1	96
Cc1cn2nc(NCCNc3ccccn3)sc2n1	i	1.1	109
CC(C)COCCCNC(=O)N1CCN(c2cnccn2)CC1	i	0.94	90
Cn1c(SCc2ccc(Cl)cc2Cl)nnc1C1CCS(=O)(=O)C1 (centres undefined)	i	1.1	76
CCc1nnc(NC(=O)CSC(C)(C)C)s1	i	0.95	88
Nc1ncn([C@@H]2O[C@H](CO)[C@@H](O)[C@H]2O)c(=O)n1	i	x	x	total CFTR fold 25 µM=0.64;total CFTR viability 25 µM=39
COC1O[C@@H]2OC3(C)CC[C@H]4[C@H](C)CC[C@@H]([C@H]1C)[C@@]24OO3 (some centres undefined)	i	x	x	total CFTR fold 25 µM=1;total CFTR viability 25 µM=95
O=C(CN1C(=O)CC2(CCCCC2)C1=O)c1cc2cc(Cl)ccc2o1	i	0.98	88
CC(C)(N)C(N)=O	i	1.1	91
CCCCN1C(=O)C(=O)N(CC(=O)N2CCNC2=O)C1=O	i	0.98	101
CCC(C)NC(=O)COc1ncnc2sc3c(c12)CCC(C)C3 (centres undefined)	i	0.94	89
O=C(NCCCN1CCc2ccccc21)c1cc2ccccc2oc1=O	i	1.4	88
O=C(NC[C@H]1CN(c2ccc(N3CCOCC3=O)cc2)C(=O)O1)c1ccc(Cl)s1	i	x	x	total CFTR fold 25 µM=1.1;total CFTR viability 25 µM=77
O=C(CSC1CCCC1)NC(=O)NC1CCCC1	i	0.85	86
CC1CN(c2ccc(S(C)(=O)=O)cc2S(C)(=O)=O)CC(C)O1 (centres undefined)	i	1.1	100
CCC1(CC)CC(=O)N(CC(O)COc2ccc(Cl)cc2)C1=O (centres undefined)	i	0.87	96
CCN(CCCNS(=O)(=O)c1cccc(S(N)(=O)=O)c1)C(=O)OC(C)(C)C	i	1	88
CC(C)C(OC(=O)c1nccnc1N)C(=O)NC(N)=O (centres undefined)	i	1	100
O=C(Cn1nnn(-c2cccs2)c1=O)N1CCC(n2nnc3c(=O)[nH][nH]c(=O)c32)CC1	i	1.2	85
O=C(Nc1ccc(N2CCCC2=O)c(Cl)c1)C1CCCO1 (centres undefined)	i	1	100
CCCCCC(C)NC(=O)c1ccc(S(=O)(=O)N2CCOCC2)o1 (centres undefined)	i	1	85
CCN(C(=O)CCNC(=O)c1ccco1)C12CC3CC(CC(C3)C1)C2	i	1.1	106
O=C(Nc1nc2ccccc2s1)OCC(F)(F)F	i	0.92	96
CC(NCc1cccc(Br)c1)c1ccc(-n2ccnc2)cc1 (centres undefined)	i	0.99	89
CC(C)CN1CC(C(=O)NCCC2=CCCCC2)CC1=O (centres undefined)	i	0.93	98
CC(NS(=O)(=O)N1CCOCC1)c1ccc(-c2ccccc2)cc1 (centres undefined)	i	0.82	83
CSCc1nc2sc(C(=O)NCC(=O)NC(C)C)c(C)c2c(=O)[nH]1	i	1.2	102
COc1cc2c(cc1OC)-c1cc(=Nc3c(C)cc(C)cc3C)n(C)c(=O)n1CC2	i	x	x	total CFTR fold 25 µM=0.95;total CFTR viability 25 µM=86

Quoted at random: 2 entries already listed
SMILES	total CFTR	total CFTR fold 10 ug/mL	total CFTR viability 10 ug/mL	others
CC(C)C(OC(=O)c1nccnc1N)C(=O)NC(N)=O (centres undefined)	i	1	100
COc1cc([C@@H]2c3cc4c(cc3[C@H](O)[C@H]3COC(=O)[C@H]23)OCO4)cc(OC)c1OC	i	x	x	total CFTR fold 25 µM=0.78;total CFTR viability 25 µM=73
